Screens (PubChem BioAssay)
RE007 growth inh – qHTS Assay for Inhibitors of the HIV-1 protein Vpr. 0.21% of 360,000 active. Potency, µM (doses to about 92.2 µM), for the others: top-dose activity change, negative = less growth. S. pombe RE007 Vpr strain, BacTiter-Glo ATP luminescence, 24 h; control for the full effect not named in the record; active = well fitted falling curve with a large enough effect; inconclusive = small, poorly fitted or top-dose-only effect; inactive = no such curve, though single readings can be large or run the other way;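 also: % is scaled to controls: 0 for no effect and ±100 for the full control effect; nearly all actives have a fitted effect of over 50% in size; the assay follows cell death caused by Vpr and the record does not say whether a fall means rescue or toxicity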
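Fission yeast strain RE007, carrying one chromosomally integrated HIV-1 vpr copy, was seeded at OD 0.01 in PMG+AL medium with 23 nL pinned compound. After 24 h at 30 °C and 99% humidity, viability was read by BacTiter-Glo luminescence.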
StopGo reporter – High Throughput Screening for Foot and Mouth Disease Virus Antivirals; human cells with a luciferase reporter of 2A StopGo recoding; control for the full effect not named in the record; Potency, µM (top dose mostly 57.9 µM), without a hit: at the highest dose signal change, negative = less light; 1.2% of 410,000 active; AID 1159524, 2015; active = well fitted falling curve with a large enough effect; inconclusive = small, poorly fitted or top-dose-only effect; inactive = no such curve, though single readings can be large or run the other way; tested in HEK293T cells; also: % is scaled to controls: 0 for no effect and ±100 for the full control effect; nearly all actives have a fitted effect of over 45% in size; luciferase light after 4 h
SARS PLP yeast – qHTS of Yeast-based Assay for SARS-CoV PLP. AID 485353, 2010. S. cerevisiae expressing SARS-CoV PLpro, growth rescue; control for the full effect not named in the record. Potency, µM (series often up to 32.9 µM), for the others: at the highest dose activity, positive = growth rescue. 0.19% of 330,000 active; active means well fitted rising curve with a large enough effect; inconclusive means small, poorly fitted or top-dose-only effect; inactive means no such curve, though single readings can be large or run the other way; also: 0% is about no effect; nearly all actives have a fitted effect of over 55% in size; growth read by luminescence after 48 h
Numbers without * were called inactive; u = inconclusive; [ ] = dose if it differs, or a comment. Potency is read from the fitted curve at half-maximal effect.

SMILES	RE007 growth inh	StopGo reporter	SARS PLP yeast
COc1cccc(CC(=O)Nc2ccc3c(c2)OC2(CCCC2)O3)c1	12%	41%[activator]	-16%
COc1cccc(NC(=O)CN(C)C(=O)c2ccccc2Sc2ccccc2C#N)c1	-19%	-16%	0%
Cc1ccc(N2C(=O)N3[C@@H]4c5ccccc5OC[C@@H]4[C@@H](c4ccccc4)[C@@]3(C)C2=O)cc1	-7%	-14%	6%
COc1ccc(S(=O)(=O)N(C)C[C@H]2Oc3ccc(NC(=O)C4CC4)cc3C(=O)N([C@H](C)CO)C[C@@H]2C)cc1	8%	-5%	-1%
CCOC(=O)[C@H]1[C@H]2COc3ccc(C)cc3[C@@H]2N2C(=O)c3ccc(F)cc3NC(=O)[C@@]12C	3%	-11%	-3%
CCCCNC(=O)CCCCCNS(=O)(=O)c1ccc(Br)cc1	8%	21%	1%
C[C@]12c3[nH]c4cc(-c5ccco5)ccc4c3CCN1C(=O)[C@@H](CC(=O)NCCN1CCOCC1)C[C@@H]2C(=O)N1CCCCC1	0%	1%	-4%
COc1ccccc1C(CNC(=O)c1ccc(S(=O)(=O)N2CCCCC2)cc1)N(C)C (stereo not drawn)	2%	-9%	2%
COc1cccc(NC(=O)CN(C)C(=O)c2cccnc2Nc2cccc(C(F)(F)F)c2)c1	4%	u	-25%
CC1CCCC(NC(=O)CN(C)CC(=O)Nc2cccc(F)c2)C1C (stereo not drawn)	-18%	-17%	-3%

The list goes on, overlapping the part above by six compounds.
SMILES	RE007 growth inh	StopGo reporter	SARS PLP yeast
CCOC(=O)[C@H]1[C@H]2COc3ccc(C)cc3[C@@H]2N2C(=O)c3ccc(F)cc3NC(=O)[C@@]12C	3%	-11%	-3%
CCCCNC(=O)CCCCCNS(=O)(=O)c1ccc(Br)cc1	8%	21%	1%
C[C@]12c3[nH]c4cc(-c5ccco5)ccc4c3CCN1C(=O)[C@@H](CC(=O)NCCN1CCOCC1)C[C@@H]2C(=O)N1CCCCC1	0%	1%	-4%
COc1ccccc1C(CNC(=O)c1ccc(S(=O)(=O)N2CCCCC2)cc1)N(C)C (stereo not drawn)	2%	-9%	2%
COc1cccc(NC(=O)CN(C)C(=O)c2cccnc2Nc2cccc(C(F)(F)F)c2)c1	4%	u	-25%
CC1CCCC(NC(=O)CN(C)CC(=O)Nc2cccc(F)c2)C1C (stereo not drawn)	-18%	-17%	-3%
CCN(C[C@H]1N[C@@](CC)(C(=O)OC)[C@H]2C(=O)N(Cc3ccccc3)C(=O)[C@@H]12)S(=O)(=O)c1ccc(F)cc1	0%	-21%	u
C=CC[C@@H](CC(=O)N(CCO)Cc1ccccc1)C(=O)N[C@H](C)COC(=O)[C@@H](CC=C)Cc1ccc(F)cc1	1%	u	15%
Cc1cc(C)c(OCC(=O)OCC(=O)NNC(=O)c2ccccc2F)c(C)c1	-21%	-5%	-2%
CC(=O)N1CCN(S(=O)(=O)c2cccc(C(=O)OCC(=O)N(CCC#N)c3ccc(F)cc3)c2)CC1	-14%	0%	-3%
O=c1c2c(-c3ccc(Cl)cc3)csc2ncn1/N=C/c1cccc([N+](=O)[O-])c1O	u	-25%	u
CCOC(=O)C1=CN(Cc2ccco2)S(=O)(=O)N(C)C1c1ccc(F)c(Cl)c1 (stereo not drawn)	-12%	-14%	-9%
O=C(CSc1nnc2ccc(-c3ccccc3)nn12)NCC1CCCO1 (stereo not drawn)	-9%	-12%	3%
COc1ccc(CNC(=O)C[C@H]2C[C@H](C(=O)N3CCOCC3)[C@@]3(CCC4CCCC4)c4[nH]c5cc(-c6ccco6)ccc5c4CCN3C2=O)cc1OC	9%	-21%	-1%
O=C(NCCOc1ccc(Cl)cc1)c1cccc(S(=O)(=O)N2CCCC2)c1	2%	u	-10%
Cc1cc2c(c(C)c1CCO)C(=O)[C@H](C)C2	0%	12%	0%
CC1CCC(NC(=O)CN2C(=O)c3ccccc3S2(=O)=O)CC1 (stereo not drawn)	-11%	51%[activator]	-1%
O=C(NCCCn1ccnc1)c1cc(-c2ccc(Br)cc2)on1	5%	0%	4%
COc1ccc(CCN(C)C(=O)c2c(C)noc2C)cc1OC	-9%	-18%	-1%
CCOc1ccc(CN(C)C(=O)CN2C(=O)NC(c3ccccc3)(c3ccccc3)C2=O)cc1	3%	-1%	-2%
CCN(c1ccccc1)S(=O)(=O)c1ccc(C(=O)Nc2nnc(CSC)o2)cc1	3%	-22%	u
COc1ccc(CNC(=O)CSc2ncnc3ccccc23)cc1OC	1%	-14%	0%
CCCN(CC(=O)Nc1ccc(F)c(F)c1F)C(=O)Cc1ccc(S(=O)(=O)N2CCOCC2)s1	2%	-2%	0%
COC(=O)C1=C(c2ccc(F)cc2OCc2ccccc2)C[C@@H]2CC[C@H]1N2C(=O)NC(C)C	-3%	-19%	0%
CC1CCN(C(=O)CN2C(=O)C(=O)N(C)C2=O)c2ccccc2S1 (stereo not drawn)	-13%	-12%	-4%
O=C1OC[C@@H]2CCCN2C(=O)[C@H](CC(=O)N(CCO)Cc2ccccc2)C/C=C\CC[C@H]1Cc1ccc(F)cc1	-12%	-26%	4%
Cc1ccc(OCC(=O)N(Cc2ccccc2)c2ccccn2)cc1	19%	30%	-1%
CCOc1cc2c(cc1OCC)CN(CC(=O)Nc1ccccc1C(=O)NC1CC1)CC2	3%	-19%	0%
CC(CCc1ccccc1)NC(=O)COC(=O)C(CCC(N)=O)NC(=O)c1ccc(F)cc1 (stereo not drawn)	-8%	-11%	-5%
CC(C)CCN1C(=O)c2ccc(C(=O)Nc3c[nH]c(=O)[nH]c3=O)cc2C1=O	5%	-11%	0%
COC(=O)C1=C(c2cccc(C#N)c2)C[C@@H]2CC[C@H]1N2C(=O)NC1Cc2ccccc2C1	1%	16%	-1%
CC(C)N(C(=O)CN1CCN(C(=O)C2COc3ccccc3O2)CC1)C(C)C (stereo not drawn)	10%	-14%	-4%
COc1ccc([C@@H]2CC=C(C(=O)O)[C@H](c3ccc(F)cc3)N2S(=O)(=O)c2ccc(C)cc2)cc1OC	-11%	0%	-1%
CC(=O)c1cccc(OCC(=O)Nc2ccccc2N2CCOCC2)c1	4%	-28%	12%
COc1ccc(/C=C/C(=O)NNC(=O)c2ccncc2)c(OC)c1	7%	5%	-9%
COc1cc(/C=C/C(=O)O[C@H]2[C@H](O[C@@H]3O[C@@H](C)[C@H](O)[C@@H](O)[C@H]3O)[C@@H](O)[C@H](OCCc3ccc(O)c(OC)c3)O[C@@H]2CO)ccc1O	-8%	-13%	7%
CC1CC(C)C[N+](=C2C=C(N3CCCC3)CC(C)(C)C2)C1 (stereo not drawn)	-11%	u	0%
O=C(c1ccncc1)N1CCN(S(=O)(=O)c2cccc(C(F)(F)F)c2)CC1	13%	-19%	-16%
O=C(NCCOc1ccccc1F)c1ccc2c(=O)n3c(nc2c1)CCC3	-2%	8%	2%
CCOc1ccc(Cl)cc1C1=CC(=O)C[C@H](c2ccc(OC)cc2)C1	-2%	0%	2%
CC1CC(CC(=O)Nc2nc(-c3ccccc3)cs2)C(=O)O1 (stereo not drawn)	21%	22%	0%
Cc1ccc(C(=O)COC(=O)c2cccc([N+](=O)[O-])c2)s1	-24%	84%[activator]	-7%
O=C1C[C@@H]2c3c(cccc3CN1Cc1ccc(F)cc1)C[C@@H](O)[C@H]2O	0%	-13%	-12%
Cc1cc(NC(=O)CSCC(=O)Nc2ccc(C)c(C)c2)no1	2%	-16%	0%
Cc1ccc(CN2Cc3cccc4c3[C@@H](CC2=O)[C@H](O)[C@H](O)C4)cc1	-2%	-21%	3%
O=C(O)[C@@H]1CCCN1S(=O)(=O)c1cccc2cccnc12	15%	-18%	4%
CSc1ccc(/C=C/C(=O)OCC(=O)N2CCc3ccccc32)cc1	-2%	-12%	-5%
CC(C)C(NC(=O)c1ccc(C(C)(C)C)cc1)C(=O)Nc1ccc(N2CCOCC2)cc1 (stereo not drawn)	1%	-13%	-3%
CC(=O)c1ccc(NC(=O)CSc2ccsc2[N+](=O)[O-])cc1	-4%	45%[activator]	3%
O=C(CN(c1ccccn1)S(=O)(=O)c1ccc(F)cc1)Nc1ccc(F)cc1F	4%	-24%	2%
COc1ccccc1C(=O)NC(CCSC)C(=O)NNC(=O)c1ccccc1O (stereo not drawn)	-9%	19%	-8%
CC(C)(C)OC(=O)C[C@@H]1C/C=C\C[C@@H](CC(=O)N(CCO)Cc2ccccc2)C(=O)NC[C@@H](c2ccccc2)OC1=O	-8%	-13%	2%
CCOC(=O)C1=CN(Cc2cccc(F)c2)S(=O)(=O)N(CC)C1c1ccc(F)c(Cl)c1 (stereo not drawn)	7%	-18%	-4%
C#CCOCCOCCOCCNc1nc(N2CCOCC2)nc(N2CCN(C(=O)CCCCCCCCCCNC(=O)[C@H]([C@@H](C)CC)n3cc(CCCCN=C(N)N)nn3)CC2)n1	10%	-21%	2%
COC(=O)C1=C(c2ccc(OC)c(OC)c2)C[C@@H]2CC[C@H]1N2C(=O)NC1CC1	-8%	-15%	2%
O=C(O)/C(=C\c1ccc(Cl)c([N+](=O)[O-])c1)c1ccc(S(=O)(=O)N2CCCC2)s1	6%	-10%	-2%

(list continues)
SMILES	RE007 growth inh	StopGo reporter	SARS PLP yeast
COc1ccc2c(C)cc(SCC(=O)NCC3CCCO3)nc2c1 (stereo not drawn)	-5%	-16%	-1%
CC(=O)c1sc(NC(=O)CN2C(=O)C3CCCCC3C2=O)nc1-c1ccccc1 (stereo not drawn)	5%	8%	6%
O=C(NCCc1ccc(C(F)(F)F)cc1)c1ccc2c(c1)OCO2	-12%	-16%	-3%
O=C(CSc1cccc[n+]1[O-])Nc1cccc(S(=O)(=O)NC2=NCCCCC2)c1	19%	-11%	3%
CN(C(=O)c1cccc(NC(=O)C2CCN(C(=O)OC(C)(C)C)CC2)c1)C1CCC1	-2%	-28%	-3%
O=C(Cn1cnc2c(NCc3ccccc3)ncnc21)NCCCc1ccccc1	2%	-21%	-3%
COc1cccc([C@@H]2CC=C(C(=O)O)[C@H](c3ccccc3)N2S(=O)(=O)c2ccc(C)cc2)c1	10%	8%	5%
CCOc1ccc(NC(=O)C2=NN(c3ccccc3)C(=O)CC2)cc1S(=O)(=O)N1CCCCC1	-11%	-20%	-4%
O=C(CNC(=O)c1ccco1)N/N=C/c1c[nH]c2ccccc12	18%	4%	3%
CC(=O)OCC1(C)CN(c2ccccc2)N(C(=O)c2ccc(F)cc2)C1=O (stereo not drawn)	19%	1%	2%
COC(=O)[C@@]12CCCN1[C@H](c1ccc(-c3ccccc3)c(OC)c1)[C@H]1C(=O)N(C)C(=O)[C@H]12	-4%	-17%	-21%
CC(=O)O[C@H]1[C@@H](O)[C@H](O)[C@H](Oc2c(O)c(C)c3c4c2[C@@H](C)CC[C@@H]4[C@@H](C)C[C@H]3C=C(C)C)O[C@H]1C	u	0%	1%
N#CCCN(C(=O)COC(=O)CCNS(=O)(=O)c1ccccc1)c1ccccc1	3%	-25%	17%
Cc1cc[n+](CC[n+]2ccc(C)cc2)cc1	12%	5%	0%
CCCCNc1c(-c2cccc(Sc3ccc(OC)cc3)c2)nc2ccccn12	u	u	-1%
O=c1ccc(S(=O)(=O)N2CCCC2)cn1Cc1nc(-c2ccccc2)no1	6%	-9%	0%
Cc1noc(C)c1S(=O)(=O)N(C)C[C@H]1Oc2c(NC(=O)NC(C)C)cccc2C(=O)N([C@H](C)CO)C[C@@H]1C	4%	-3%	13%
O=C(CCNC(=O)c1ccc([N+](=O)[O-])cc1)Nc1cc(Cl)ccc1N1CCOCC1	-16%	0%	-2%
O=C(OCc1cccc([N+](=O)[O-])c1)c1cnccn1	4%	-16%	15%
CC1(c2ccc(Cl)cc2)NC(=O)N(CC(=O)N2CCc3ccccc32)C1=O (stereo not drawn)	-24%	-20%	-2%
COC(=O)[C@]1(Cc2ccccc2)N[C@H](CN(C)C(=O)NC(C)C)[C@@H]2C(=O)N(C)C(=O)[C@@H]21	-10%	-4%	5%
Cc1ccsc1C(=O)OCC(=O)NCc1ccc(Cl)cc1	3%	18%	6%
CC1CCC2(CC1)NC(=O)N(CC(=O)Nc1ccc(C(N)=O)cc1)C2=O (stereo not drawn)	4%	-11%	3%
CC(C)(C)NC(=O)NC(=O)CN1CC=C(c2ccccc2)CC1	-1%	-6%	-3%
COC(=O)C1=C(c2c(C)noc2C)C[C@@H]2CC[C@H]1N2C(=O)NCC1CC1	2%	3%	-1%
CC(C)CCN1CCC(C)(NC(=O)c2ccccc2)C1=O (stereo not drawn)	42%	-1%	2%
COc1ccc(-c2coc3cc(O[C@@H]4O[C@H](CO)[C@@H](O)[C@H](O)[C@H]4O)ccc3c2=O)cc1	-4%	51%[activator]	-14%
COCCNC(=O)c1onc(CS(=O)(=O)c2cc(C)cc(C)c2)c1C(=O)NCCOC	-8%	-19%	-13%

This is a subset; count on the stated rates, not on these rows.
